# Sfp PPTase inh: inhibitors of Bacillus subtilis Sfp phosphopantetheinyl transferase; Q9F4F7; Biochemical Sfp PPTase activity, qHTS; Potency, µM, without a hit: max response, negative = inhibition, actives largely listed as inhibitors; actives 3.5% (n = 310,000); active means well fitted inhibition curve with a large enough effect; inconclusive means small, poorly fitted or top-dose-only effect, or another doubt; inactive means no such curve, though single readings can be large or run the other way;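 further: the enzyme is Sfp with the accession as filed and its product quenches rhodamine fluorescence; potency means the concentration at half of the fitted maximal effect; 0% = enzyme reaction without inhibitor and -100% = no enzyme wells; top concentration of the series not given in the record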
#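 Fluorescence-quenching assay: 15 nM Sfp-PPTase preincubated 15 min at room temperature with compound, then 5 uM rhodamine-CoA and 12.5 uM BHQ-2-labelled YbbR peptide added. Fluorescence (ex 525/em 598 nm) read at start and after 30 min; difference gives rate.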
# gsp ag: activates gsp, the McCune-Albright syndrome mutation. Potency, µM (doses to about 76.9 µM), inactives show at the top dose activation (cAMP increase), most hits filed as activators. actives 0.13% (n = 340,000). gsp mutant cells, cAMP HTRF, 30 min; control for the full effect not named in the record; active = well fitted activation curve with a large enough effect; inconclusive = small, poorly fitted or top-dose-only effect, or another doubt; inactive = no such curve, though single readings can be large or run the other way; cell line not stated here;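 further: phosphodiesterase inhibitor Ro 20-1724 added with compounds to block cAMP breakdown; potency means the concentration at half of the fitted maximal effect; nearly all actives have a fitted effect of over 60% in size; about a fifth of the inactives were tested at one dose only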
#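 Cells in DMEM/10% FBS with G418 were pretreated with compounds in DMSO plus […] (300 uM stock) for 30 min at 37C. cAMP was measured by HTRF (cAMP-d2 plus anti-cAMP antibody-K) after 30 min at room temperature.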
# TRPV1 potentiator: potentiators of human vanilloid receptor 1 (TRPV1). Q8NER1. TRPV1-expressing cells, Fluo-8 calcium influx, capsaicin EC20 potentiation; host cell line not named in the record; control for the full effect not named in the record. potentiation, % at 8.33 µM. actives 0.02% (n = 320,000); active means potentiation above 80%; inconclusive means 30% to 80%; inactive means below 30%; further: 0% is about no effect
# Target sequence (Q8NER1 whole entry, looked up): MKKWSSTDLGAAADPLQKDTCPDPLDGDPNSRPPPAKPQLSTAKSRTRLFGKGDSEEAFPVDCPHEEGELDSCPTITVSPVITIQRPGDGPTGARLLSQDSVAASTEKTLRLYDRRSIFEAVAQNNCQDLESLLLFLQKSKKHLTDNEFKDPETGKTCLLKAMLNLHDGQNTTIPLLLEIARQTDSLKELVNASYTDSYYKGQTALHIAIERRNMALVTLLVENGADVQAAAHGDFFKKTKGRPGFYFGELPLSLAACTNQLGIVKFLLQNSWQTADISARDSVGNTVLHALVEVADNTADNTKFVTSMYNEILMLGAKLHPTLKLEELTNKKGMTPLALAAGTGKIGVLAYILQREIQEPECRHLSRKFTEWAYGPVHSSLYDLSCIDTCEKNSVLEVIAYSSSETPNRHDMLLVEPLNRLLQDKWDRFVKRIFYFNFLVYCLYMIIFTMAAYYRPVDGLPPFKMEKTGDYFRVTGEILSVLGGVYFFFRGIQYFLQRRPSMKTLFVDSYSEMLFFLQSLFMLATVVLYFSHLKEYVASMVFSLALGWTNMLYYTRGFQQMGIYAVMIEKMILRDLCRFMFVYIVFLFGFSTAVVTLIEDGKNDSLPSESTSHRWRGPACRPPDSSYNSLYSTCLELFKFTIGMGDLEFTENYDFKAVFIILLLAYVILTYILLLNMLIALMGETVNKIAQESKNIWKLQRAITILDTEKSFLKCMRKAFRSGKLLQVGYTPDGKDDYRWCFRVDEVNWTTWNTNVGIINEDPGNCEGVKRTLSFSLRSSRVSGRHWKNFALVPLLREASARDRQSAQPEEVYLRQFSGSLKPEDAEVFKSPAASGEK
#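 TRPV1-expressing cells were cultured overnight at 35.5C and loaded with Fluo-8 calcium dye for 40 to 90 min at room temperature. After a 10 s baseline, compound was added and calcium influx was read kinetically for 3 min (ex 480/em 520 nm).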
# ClpP mod: qHTS Assay for Activators of ClpP | Potency, µM (doses to about 57.5 µM), without a hit: top-dose activity change, negative = active | actives 1.9% (n = 340,000) | ATP-dependent Clp protease proteolytic subunit (Bacillus subtilis (strain 168)), P80244 | purified B. subtilis ClpP, FRET peptide cleavage, 20 min; active = well fitted falling curve with a large enough effect; inconclusive = small, poorly fitted or top-dose-only effect; inactive = no such curve, though single readings can be large or run the other way; further: potency means the concentration at half of the fitted maximal effect; the source files actives as falling curves though it sought activators and does not explain the sign; nearly all actives have a fitted effect of over 65% in size; many hits overshoot -100%
# Target sequence (P80244 whole entry, looked up): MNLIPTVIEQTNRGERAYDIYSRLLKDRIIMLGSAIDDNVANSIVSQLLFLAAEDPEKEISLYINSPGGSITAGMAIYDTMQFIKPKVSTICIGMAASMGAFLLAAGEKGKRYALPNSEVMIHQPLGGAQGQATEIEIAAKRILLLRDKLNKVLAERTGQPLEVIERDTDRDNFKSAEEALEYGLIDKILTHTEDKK
#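 ClpP 10 microg/mL final, pH 8 Tris/KCl buffer with BSA, glycerol, Tween-20; compound pinned in; FRET-FV substrate; RT 20 min; Ex320/Em430; ΔFRET vs ADEP 5.8 microM, DMSO, no enzyme.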
# Menin-MLL FL inh: displaces fluorescein MLL peptide from human menin; AID 1766; FP activity change, % at 61.4 µM; 290,000 tested, under 10 active; Fluorescence polarization, fluorescein-MLL peptide displacement from menin; inconclusive = falling polarisation curve, or a change in total fluorescence; inactive = total fluorescence flat and polarisation flat or rising; no compound was filed as active; the % refers to the polarisation; negative = inhibition;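 further: % of control where 0% means no effect; inhibitors lower the polarisation; unlabelled MLL peptide was the positive control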
# gsp antagonist: gsp mutant antagonism; AID 624288; gsp-mutant cells, cAMP HTRF, 30 min; control for the full effect not named in the record; actives 0.4% (n = 340,000); Potency, µM (series often up to 76.9 µM), inactives show top-dose activity change, negative = inhibition, most hits filed as inhibitors; active = falling curve of any shape with a large fitted effect; inconclusive = falling curve, mostly with a smaller effect; inactive = flat or rising curve; cell line not stated here;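 further: intracellular cAMP measured with PDE inhibitor Ro 20-1724 present during compound exposure; potency means the concentration at half of the fitted maximal effect; on the % scale 0 is the no-effect control and ±100 the full control effect; nearly all actives have a fitted effect of over 65% in size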
#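 Cells in G418 medium, seeded 16-24 h, 37C; buffer exchange to DPBS + 1 mM CaCl2, 0.5 mM MgCl2, 0.05% BSA; cpds in DMSO + […] (300 uM stock), 30 min 37C; HTRF cAMP detection.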
# CtBP-E1A blk: inhibitors of CtBP/E1A interaction. activity change, % (concentration not given with the values). AlphaScreen GST-E1A/His-CtBP binding, 1536-well; stronger effect = lower value; control for the full effect not named in the record. actives 0.49% (n = 340,000); in the data active means activity change below about -65%; inconclusive means about -30% to -65%; inactive means above about -30%; further: on the % scale 0 is the no-effect control and ±100 the full control effect
#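 In 5 uL wells, 23 nL compound meets equimolar GST-E1A and His-CtBP (5X stock 125 nM each) for 2 h, 37 °C. Beads (5X, 50 ug/mL) then 1 h, 37 °C, dark.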
# Starred values were filed as active, the others as inactive; ? = inconclusive; · = not tested or not shown; [ ] = another dose, or the depositor's remark.
# Field names – A = Sfp PPTase inh; B = gsp ag; C = TRPV1 potentiator; D = ClpP mod; E = Menin-MLL FL inh; F = gsp antagonist; G = CtBP-E1A blk
COc1ccc(C)cc1NC(=O)C1C2C=CC(C2)C1C(=O)O (stereo not given)
  A = -24%; B = -15%; C = -3; D = 1.5%; E = ?; F = -7%; G = 2
CCC(C(=O)N1CCOCC1)n1nc(C)c2sc3ccccc3c2c1=O (stereo not given)
  A = 13%; B = -46%[inhibitor]; C = -4; D = -0.1%; E = -1.5; F = 15%; G = 11
O=C(NC(=S)Nc1ccccc1Cl)c1cncc(C#Cc2ccccc2)c1
  A = 0%; B = -13%; C = 1; D = ·; E = -0.2; F = 0%; G = 4
COc1ccc(CN(CCN2CCOCC2)C(=O)c2c(F)cccc2F)cc1OC
  A = 0%; B = -34%[inhibitor]; C = 4; D = 0.7%; E = 1.9; F = -5%; G = 13
c1ccc(OCCN2CCOCC2)cc1
  A = -11%; B = -5%; C = -2; D = 1.2%; E = -0.2; F = 7%; G = 10
O=C(CSc1ncnc2c1nnn2Cc1ccccc1)NC1CCCC1
  A = -1%; B = 2%[15.4 µM]; C = -3; D = ·; E = -0.5; F = -8%; G = 8
CC1CCN(Cc2nnnn2CCCC(=O)NCCc2cnn(C)c2)CC1
  A = 10%; B = ?; C = 6; D = 2.7%; E = 2.9; F = 10%; G = ·
N#C/C(=C/c1ccc(Oc2ccc([N+](=O)[O-])cn2)cc1)C(=O)N1CCOCC1
  A = -1%; B = -5%[15.4 µM]; C = -16; D = -0.8%; E = 1.3; F = 19%; G = -13
Oc1ccc(Br)cc1/C=N/n1c(C2CCCCC2)n[nH]c1=S
  A = -2%; B = 4%; C = -7; D = ·; E = -14; F = 3%; G = -2
Cc1ccc(C(=O)CCNc2cccc(Br)c2)o1
  A = -2%; B = 1%; C = 28; D = -1.2%; E = 1.0; F = -9%; G = -3
CCN1CCN(C(=O)c2ccc3c(c2)N(Cc2ccc(F)cc2)C(=O)c2ccccc2S3=O)CC1 (stereo not given)
  A = 12%; B = 1%; C = 14; D = 2.3%; E = -0.8; F = -8%; G = 4
CN(N)C(=S)NCc1ccccc1
  A = -17%; B = -23%; C = 11; D = 1.6%; E = -0.6; F = 14%; G = 52
Cc1oc2c(CN(C)C)c(O)ccc2c(=O)c1-c1cscn1
  A = 17%; B = 22%; C = 2; D = 25µM*; E = -2.0; F = 9%; G = 2
COc1ccc(C(=O)O)cc1S(=O)(=O)N1CCN(Cc2ccc3c(c2)OCO3)CC1
  A = ·; B = -13%; C = ·; D = ·; E = ·; F = -16%; G = 8
O=C(c1ccccc1)N1CCCCC(S(=O)(=O)c2ccc3ccccc3c2)C1=O (stereo not given)
  A = 3%; B = -33%[inhibitor]; C = 18; D = 1.0%; E = 17; F = -2%; G = 5
CCCC1=C(C(=O)OCC)C(c2ccco2)n2ncnc2N1 (stereo not given)
  A = 0%; B = 14%; C = -21; D = -1.5%; E = -1.1; F = 6%; G = ·
COc1ccc(-c2[nH]ncc2CN2CCC(OCc3ccccn3)CC2)c(F)c1
  A = 9%; B = 19%; C = 13; D = 1.1%; E = -2.9; F = 5%; G = ·
O=C1NC(=O)/C(=C/c2ccc(O)cc2)S1
  A = 18%; B = 2%; C = 3; D = 1.7%; E = 2.6; F = -9%; G = -2
CCOc1ccccc1CN1CCN(Cc2nc3ccccc3s2)CC1CCO (stereo not given)
  A = 6%; B = -15%; C = 24; D = -1.2%; E = 1.2; F = 9%; G = ·
NS(=O)(=O)c1cccc(NC(=O)CN2CCN(S(=O)(=O)c3ccc4c(c3)OCCO4)CC2)c1
  A = ·; B = 9%; C = ·; D = ·; E = ·; F = -1%; G = 0
CCCCOCCCNCc1cccn1CCN1CCOCC1
  A = 2%; B = 3%[15.4 µM]; C = 2; D = -22%; E = -1.3; F = 4%; G = -3
O=c1cc(CSc2nnc(C3CC3)n2Cc2ccccc2)nc2sccn12
  A = -3%; B = -3%; C = 2; D = -1.0%; E = -9.6; F = 6%; G = ·
CCOC(=O)c1ccc(CNS(=O)(=O)c2c(C)ccc3nsnc23)o1
  A = 32%[activator]; B = 2%; C = -20; D = 4.0%; E = 3.4; F = 7%; G = 19
Cn1c(SCc2ccccc2)nnc1-c1ccc2c(c1)OCO2
  A = 8%; B = 9%; C = -1; D = -13%; E = -1.5; F = 10%; G = 7
CC1CN(C(=O)c2cccc(COc3ccc(Br)cc3)c2)CC(C)O1 (stereo not given)
  A = 17%; B = 4%; C = -4; D = 1.8%; E = 7.6; F = -11%; G = 0
CC(C)(C)NC(=O)/C=C/c1cccc(C(F)(F)F)c1
  A = -5%; B = 25%; C = -27; D = 0.2%; E = 5.7; F = 3%; G = 7
CCOC(=O)c1c(C)[nH]c(C(=O)/C(C#N)=C/c2ccc(OC)c(OC)c2)c1C
  A = -2%; B = -44%[inhibitor]; C = -3; D = -0.6%; E = 10; F = -14%; G = 1
COc1cc(C2/C(=C(\O)c3ccc4c(c3)CC(C)O4)C(=O)C(=O)N2CCCn2ccnc2)cc(OC)c1OC (stereo not given)
  A = 5%; B = 39%; C = -11; D = ·; E = ·; F = 13%; G = 6
Cc1ccc2cccc(OCC(=O)NCc3ccco3)c2n1
  A = 28µM*; B = 5%; C = -1; D = -9.2%; E = 3.3; F = -7%; G = -2
N/C(Cc1nc(-c2ccc(F)cc2)cs1)=N\O
  A = 15%; B = 8%; C = 15; D = ·; E = -1.6; F = 21%; G = 3
CCOC(=O)c1cnc2c(C(F)(F)F)cccc2c1NCCCN1CCOCC1
  A = 7%; B = -13%; C = -21; D = -5.8%; E = 2.9; F = -7%; G = ·
c1ccc(-c2csc(-c3ccc(-c4csnn4)cc3)n2)cc1
  A = 12%; B = -1%; C = 10; D = -8.9%; E = 3.1; F = 3%; G = 13
O=S1(=O)CCOC[C@H](Cc2ccccc2)N1Cc1cccc(Cl)c1
  A = ·; B = ?; C = ·; D = 1.4%; E = ·; F = -7%; G = ·
Cc1cccc(NC(=S)NNC(=O)c2csc3c2CCCC3)c1
  A = 28%; B = -44%[inhibitor]; C = -12; D = 7.3%; E = 1.9; F = -7%; G = 4
CCCCN(C)CCNC(=O)C(=O)c1c(C)[nH]c2ccccc12
  A = 3%; B = 4%[15.4 µM]; C = 17; D = ·; E = -1.4; F = 21%; G = -10
O=C(NCc1ccc(F)cc1)c1cccc2c1C(=O)c1ccc(N3CCC(N4CCCCC4)CC3)cc1S2(=O)=O
  A = ·; B = -37%; C = ·; D = 0.2%; E = ·; F = ·; G = 2
CCc1cc2c(NCCC(=O)O)ncnc2s1
  A = 2%; B = -38%[inhibitor]; C = 6; D = -5.6%; E = 3.0; F = 14%; G = 8
CCOC(=O)NN1C(=O)c2ccccc2NC1c1ccc(OC)c(OC)c1 (stereo not given)
  A = 12%; B = 19%; C = -3; D = ·; E = -2.7; F = 9%; G = 7
CCOC(=O)CC(NC(=O)Cc1cccs1)c1ccccc1Cl (stereo not given)
  A = 9%; B = 13%[15.4 µM]; C = -16; D = -1.0%; E = 9.7; F = 5%; G = -1
COC1C(O)C(O)C(O)C(O)C1O (stereo not given)
  A = 3%; B = ·; C = ·; D = 0.6%; E = 0.4; F = 13%; G = 3
O=C(N/N=C/C=C\c1ccccc1[N+](=O)[O-])c1ccco1
  A = 22%; B = 0%; C = 9; D = -1.6%; E = -1.3; F = -2%; G = -12
CCOC(=O)[C@H]1[C@H]2COc3ccc(C)cc3[C@@H]2N2C(=O)c3cc(Cl)ccc3NC(=O)[C@@]12C
  A = ·; B = ?; C = 25; D = -1.5%; E = ·; F = -14%; G = ·
CCCc1ncc(CN2CCC(C(=O)Nc3cccc(-c4cscn4)c3)CC2)cn1
  A = 12%; B = 21%; C = 14; D = -1.6%; E = -2.4; F = -3%; G = -14
O=C(CSc1nnc(-c2ccccc2)n1Cc1ccco1)Nc1ccc(S(=O)(=O)N2CCCC2)cc1
  A = -23%; B = 4%; C = -4; D = -2.3%; E = 3.7; F = -10%; G = -22
COc1ccc(F)c(CN2CCC(n3nccc3NC(=O)CCCc3ccccc3)CC2)c1
  A = 4%; B = -21%; C = 10; D = -0.6%; E = ·; F = 1%; G = 0
CC(C)c1onc(C(=O)NCc2ccc(F)cc2)c1[N+](=O)[O-]
  A = 5%; B = ?; C = -18; D = -1.4%; E = -0.1; F = -1%; G = -3
O=C(COC(=O)c1cc[n+]([O-])cc1)Nc1cc([N+](=O)[O-])ccc1Cl
  A = ·; B = 3%; C = 10; D = -1.7%; E = ·; F = 4%; G = 5
CC(=O)c1cccc(CN2CCc3ccc(NC(=O)C4CCCO4)cc3C2)c1 (stereo not given)
  A = 6%; B = -88%[inhibitor]; C = -8; D = -3.9%; E = -7.7; F = 4%; G = 1
CC(=O)N1CC2(CC(=O)OC(C)C)CN(C(C)=O)CC(CC(=O)OC(C)C)(C1)C2=O
  A = 12%; B = -18%; C = -3; D = -0.4%; E = -1.0; F = -6%; G = 4
CCNc1ccc2c(Cl)cc(=O)oc2c1
  A = -6%; B = -13%[15.4 µM]; C = -17; D = 1.2%; E = 2.9; F = 11%; G = 5
CCN(CC)S(=O)(=O)c1ccc(Cl)c(NC(=O)c2ccccc2C)c1
  A = 11%; B = 6%; C = -1; D = 0.2%; E = 3.3; F = -9%; G = 14
COc1cc(OC)c(N2CC(C(=O)Nc3cccc(C(=O)NC4CC4)c3)CC2=O)cc1Cl (stereo not given)
  A = ·; B = -13%[15.4 µM]; C = 0; D = ·; E = ·; F = 12%; G = ?

# 2 of the compounds above, with each value named:
CCOc1ccccc1CN1CCN(Cc2nc3ccccc3s2)CC1CCO (stereo not given)
  Sfp PPTase inh = 6%	gsp ag = -15%	TRPV1 potentiator = 24	ClpP mod = -1.2%	Menin-MLL FL inh = 1.2	gsp antagonist = 9%	CtBP-E1A blk = ·
NS(=O)(=O)c1cccc(NC(=O)CN2CCN(S(=O)(=O)c3ccc4c(c3)OCCO4)CC2)c1
  Sfp PPTase inh = ·	gsp ag = 9%	TRPV1 potentiator = ·	ClpP mod = ·	Menin-MLL FL inh = ·	gsp antagonist = -1%	CtBP-E1A blk = 0
